# TRPML1 ag: activates the human TRPML1 channel; 410,000 tested, 0.12% active; TRPML1-expressing cells, Ca2+ dye fluorescence, FDSS; host cell line not named in the record; reference of the full effect not given here; Q9GZU1; activation, % (no concentration beside the values); in the data active = activation above about 50%; inconclusive = about 30% to 50%; inactive = below about 30%; further: 0% is about no effect; the text of the record puts the active cut at 80%
#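 Cells: TRPML1-DL, 1X Tet inducer, ~16 h at 37 degrees C/5% CO2. Dye: ABD Ca8 no-wash + quencher, 45-90 min RT. Read: 10 s baseline, compound add, 110 s agonist phase; 54-4 EC80 (4uM final), 110 s antagonist phase.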
# PINK1 expr mod: changes PINK1 expression; PINK1 immunofluorescence, high-content cytometry, 24 h; 410,000 tested, 0.2% active; Potency, µM (doses to about 76.6 µM), for the others: at the top dose activation (PINK1 increase), hits mostly activators; active = well fitted activation curve with a large enough effect; inconclusive = small, poorly fitted or top-dose-only effect; inactive = flat fitted curve, though single readings scatter; cell line not stated here;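 further: potency means the concentration at half of the fitted maximal effect; % of control where 0% means no effect; nearly all actives have a fitted effect of over 65% in size; a mitochondrial uncoupler was the plate control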
#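 PINK1 protein level read as immunofluorescence by microplate cytometer in a fixed, stained stable cell line after 24 h exposure to five compound concentrations, with CCCP as control.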
# TRPV1 potentiator: potentiators of human vanilloid receptor 1 (TRPV1); TRPV1-expressing cells, Fluo-8 calcium influx, capsaicin EC20 potentiation; host cell line not named in the record; control for the full effect not named in the record; Q8NER1; potentiation, % at 8.33 µM; 320,000 tested, 0.02% active; active means potentiation above 80%; inconclusive means 30% to 80%; inactive means below 30%; further: 0% is about no effect
# Target sequence (Q8NER1 whole entry, looked up): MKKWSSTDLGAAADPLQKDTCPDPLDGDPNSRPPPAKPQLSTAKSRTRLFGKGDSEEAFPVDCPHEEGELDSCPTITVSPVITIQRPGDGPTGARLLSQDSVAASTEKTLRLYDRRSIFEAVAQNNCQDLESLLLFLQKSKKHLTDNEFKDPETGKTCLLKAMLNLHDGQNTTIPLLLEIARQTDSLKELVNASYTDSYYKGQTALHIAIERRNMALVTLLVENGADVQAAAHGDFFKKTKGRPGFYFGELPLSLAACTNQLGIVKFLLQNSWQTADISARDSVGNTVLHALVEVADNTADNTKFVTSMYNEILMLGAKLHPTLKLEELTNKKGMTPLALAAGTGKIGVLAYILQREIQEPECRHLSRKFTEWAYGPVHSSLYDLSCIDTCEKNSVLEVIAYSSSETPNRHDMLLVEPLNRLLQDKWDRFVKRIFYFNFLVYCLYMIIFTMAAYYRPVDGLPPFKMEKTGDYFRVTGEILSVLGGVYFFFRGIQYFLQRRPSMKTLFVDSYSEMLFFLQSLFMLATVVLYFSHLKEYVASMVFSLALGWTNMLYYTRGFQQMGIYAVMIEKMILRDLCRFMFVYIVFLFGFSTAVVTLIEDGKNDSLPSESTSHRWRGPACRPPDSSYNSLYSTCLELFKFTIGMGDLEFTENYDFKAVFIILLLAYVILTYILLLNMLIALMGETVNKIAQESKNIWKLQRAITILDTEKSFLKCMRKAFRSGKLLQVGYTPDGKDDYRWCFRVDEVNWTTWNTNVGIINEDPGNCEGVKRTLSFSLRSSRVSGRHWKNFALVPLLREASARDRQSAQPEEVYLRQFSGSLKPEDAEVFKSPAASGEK
#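 Fluo-8 calcium influx in TRPV1-expressing cells, kinetic read (ex 480/em 520 nm). Compound added and read 3 min for agonist activity, followed by capsaicin at EC20 final and 2 min further read for enhancement.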
# Sfp PPTase inh: Sfp phosphopantetheinyl transferase inhibition; 310,000 tested, 3.5% active; Biochemical Sfp PPTase activity, qHTS; AID 1490; Potency, µM, without a hit: max response, negative = inhibition, most hits filed as inhibitors; active means well fitted inhibition curve with a large enough effect; inconclusive means small, poorly fitted or top-dose-only effect, or another doubt; inactive means no such curve, though single readings can be large or run the other way;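 further: the enzyme is Sfp with the accession as filed and its product quenches rhodamine fluorescence; potency means the concentration at half of the fitted maximal effect; 0% = enzyme reaction without inhibitor and -100% = no enzyme wells; top concentration of the series not given in the record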
#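 After 15 min at room temperature with compound, 15 nM Sfp received 5 uM rhodamine-CoA plus 12.5 uM BHQ-2-ybbR (50 mM Hepes pH 7.6, 10 mM MgCl2). Rate came from the fluorescence difference over 30 min, ex 525/em 598 nm.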
# TRPML1 blocker: human mucolipin-1 channel inhibition; 390,000 tested, 0.02% active; activity change, negative = inhibition, % (no concentration beside the values); TRPML1-inducible cells, Ca2+ dye fluorescence, FDSS; stronger effect = lower value; inhibition of EC80 agonist-evoked calcium signal; in the data active means activity change below about -50%; inconclusive means about -30% to -50%; inactive means above about -30%;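 further: stimulus is agonist 54-4 at its EC80 concentration; on the % scale 0 is the no-effect control and ±100 the full control effect; compound concentration not given in the record; the text of the record puts the active cut at -80%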
#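 TRPML1-DL cells, Tet-induced overnight (~16 h, 37 °C) at 1,500 cells/well, were loaded with Ca8 no-wash dye plus quencher for 45-90 min at room temperature. Compounds were pinned during FDSS kinetic reading; agonist 54-4 at EC80 (4 uM final) then added.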
# Menin-MLL FL inh: menin-MLL binding inhibition, fluorescein peptide | AID 1766 | 290,000 tested, under 10 active | Fluorescence polarization, fluorescein-MLL peptide displacement from menin | FP activity change, % at 61.4 µM; inconclusive = falling polarisation curve, or a change in total fluorescence; inactive = total fluorescence flat and polarisation flat or rising; no compound was filed as active; the % refers to the polarisation; negative = inhibition;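 further: % of control where 0% means no effect; inhibitors lower the polarisation; unlabelled MLL peptide was the positive control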
# ClpP mod: qHTS Assay for Activators of ClpP | AID 651965, 2013 | ATP-dependent Clp protease proteolytic subunit (Bacillus subtilis (strain 168)), P80244 | 340,000 tested, 1.9% active | Potency, µM (titrated, usually from 57.5 µM), for inactives: top-dose activity change, negative = active | purified B. subtilis ClpP, FRET peptide cleavage, 20 min; active = well fitted falling curve with a large enough effect; inconclusive = small, poorly fitted or top-dose-only effect; inactive = no such curve, though single readings can be large or run the other way; further: potency means the concentration at half of the fitted maximal effect; the source files actives as falling curves though it sought activators and does not explain the sign; nearly all actives have a fitted effect of over 65% in size; many hits overshoot -100%
# Target sequence (P80244 whole entry, looked up): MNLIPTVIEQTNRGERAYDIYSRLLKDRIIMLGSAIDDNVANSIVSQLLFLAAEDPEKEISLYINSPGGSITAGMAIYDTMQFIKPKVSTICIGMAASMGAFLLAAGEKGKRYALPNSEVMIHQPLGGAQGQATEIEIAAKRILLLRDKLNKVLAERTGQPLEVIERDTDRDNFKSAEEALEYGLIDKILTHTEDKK
#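 Purified B. subtilis ClpP, 10 microg/mL final in Tris/HCl pH8 with KCl, BSA, glycerol and Tween-20, cleaved an Abz/nitrotyrosine-quenched decapeptide. Fluorescence (ex 320, em 430) was read at 0 and 20 min at room temperature. Delta was normalized to 5.8 microM ADEP and DMSO/no-enzyme controls.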
# * = called active by the depositor; ? = inconclusive; nt = no result given; & = joins results of further samples; ! = not active in a repeat; [ ] = remark or other dose.
SMILES,TRPML1 ag,PINK1 expr mod,TRPV1 potentiator,Sfp PPTase inh,TRPML1 blocker,Menin-MLL FL inh,ClpP mod
CN(C)c1ccc(-c2nc(N(C)Cc3ccco3)c3ccccc3n2)cc1,nt,-0.7%,nt,25.1µM*,nt,-11.0,nt
COc1ccc2c(c1)CC/C2=N\OC(=O)c1cccc(C)c1,3.8,6.1%,15.7,-21.4%,65.3,-3.6,-1.6%
Cc1c(NC(=O)CSc2nnc(Nc3ccccc3)s2)c(=O)n(-c2ccccc2)n1C,1.0,1.8%,7.7,-8.7%,-14.5,-3.7,1.0%
CCn1c2ccccc2c2cc(/C=N/NC(=O)c3cc(O)cc(O)c3)ccc21,0.2,-1.4%,9.8,-19.1%,5.8,16.9,nt
COc1ccccc1NC(=O)CSc1nc(O)cc(=O)[nH]1,0.7,nt,7.0,10.8%,-2.5,18.3,-2.0%
Cc1cc(N2CCN(Cc3cn(C)nc3-c3ccccc3F)CC2)cc(C)n1,-0.2,2.4%,-3.3,11.0%,6.5,-2.8,-1.2%
COc1ccc(Cc2noc(CN(C)CC3CCN(Cc4ccccc4)CC3)n2)cc1OC,-0.2,0.3%,-25.5,12.4%,-2.3,1.0,-2.8%
Cc1ccc(CS(=O)(=O)c2cn(CC(=O)N(C)c3ccccc3)c3ccccc23)cc1,3.3,-0.1%,nt,nt,34.6,nt,-3.5%
Cc1cc(-c2ccco2)n(CC(=O)NCCCc2ccccc2)n1,0.1,0.1%,23.3,-13.0%,4.2,3.7,0.2%
CC(C)CNC(=O)Nc1cc(C(=O)NCc2ccc(C(C)C)cc2)ccc1N1CCCC1,1.8,1.0%,nt,nt,16.4,nt,-8.1%
COCCn1c(SCC(=O)N2CCCCCC2)nc2c(c1=O)SCC2,3.1,-1.2%,5.9,4.4%,41.1,nt,-2.2%
NC(=O)c1nnsc1Sc1c(C(N)=O)nnn1-c1cccc(N)c1,0.5,2.1%,-9.8,-8.7%,-4.0,-0.2,0.5%
CC(C)c1nc(SCC(=O)N2CCOCC2)c2c(=O)n(C)c(=O)n(C)c2n1,-0.3,2.1%,nt,-0.7%,1.8,1.2,0.1%
CC1(c2ccccc2Cl)NC(=O)N(CC(=O)c2ccc3c(c2)OCO3)C1=O (configuration not stated),0.7,0.3%,19.8,nt,17.8,nt,nt
COc1ccc(CCCc2nnc(SCC(=O)Nc3ncc(C)s3)o2)cc1,0.6,5.4%,3.3,0.3%,-3.3,1.3,-0.8%
C#CCOCCOCCOCCNc1nc(N2CCN(C(=O)Cn3cc(CCCCN)nn3)CC2)nc(N2CCN(C(=O)[C@H](CCCCN)n3cc(CCC(=O)O)nn3)CC2)n1,-0.9,0.4%,10.3,nt,-1.7,nt,-0.2%
COc1cccc(COCC(O)Cn2cnc3cc(C)c(C)cc32)c1 (configuration not stated),1.9,0.3%,-8.6,-13.8%,-3.3,2.2,nt
Nc1ccc(-c2c3ccc(=O)cc-3oc3cc(O)ccc23)c(C(=O)O)c1,84.0*,2.7%,0.5,nt,-1.6,nt,-6.6%
CC(C)[C@H](NC(=O)N1CCn2c1nc1ccccc12)C(=O)N[C@H](C(=O)O)c1ccccc1,nt,0.1%,-10.1,10.3%,nt,-9.3,1.5%
Cc1cc(-c2nnc(SCC(=O)Nc3ccccc3C(F)(F)F)o2)c(C)n1-c1ccccc1,5.0,-1.8%,11.6,-2.1%,15.9,7.7,-12.2%
Cc1cc(Nc2ccccc2O)c2ccccc2n1,-0.5,-1.2%,10.6,3.0%,-4.3,-1.3,nt
O=C(c1ccccc1)N(C1=NCCCCS1)c1ccccc1,-0.1,1.8%,-8.8,7.6%,38.5,0.3,-3.1%
CCCCNC(=O)C1(C)CCC(=O)N1C1CC1 (configuration not stated),-0.6,-0.6%,nt,nt,nt,nt,0.1%
CN1CCCCC1(C)C(=O)NCc1cc(Cl)ccc1F (configuration not stated),-0.3,2.4%,nt,nt,nt,nt,-1.1%
O=C(c1ccc(COc2ccc(Cl)cc2)cc1)N1CCCCC1,1.6,1.7%,2.1,-17.3%,31.9,-3.9,nt
CC1CCCCN1C(=O)COC(=O)c1cc([N+](=O)[O-])ccc1N (configuration not stated),-0.5,-2.2%,6.5,nt,1.2,nt,-12.2%
COc1ccc(C2=NNC(=O)CC2)cc1,0.8,-1.8%,?,-7.6%,4.0,-0.8,-2.0%
COc1ccc(-n2c(C)c3c(OC)cccc(=O)c3c2C)cc1,1.2,-0.6%,-2.8,-17.9%,-9.5,?,-0.4%
O=C(COC(=O)Cn1cnc2ccccc21)NCCc1ccc(Cl)cc1,2.2,-4.7%,0.1,17.3%,-10.3,2.1,2.2%
Cc1ccccc1NC(=O)Cn1c(NCC(C)O)nc2ccccc21 (configuration not stated),0.0,-0.2%,-1.5,8.6%,-1.9,5.3,-2.6%
Cc1cccc(NC(=O)COC(=O)c2cccc3c2C(=O)c2ccccc2C3=O)c1C,2.3,3.5%,2.1,-5.9%,-6.3,1.0,1.1%
O=C(COC(=O)C12CC3CC(CC(C3)C1)C2)Nc1nccs1,0.0,14.6%,-2.9,24.9%,-5.8,0.5,1.3%
CCN(C(=O)c1cc2c(s1)-c1c(C)cccc1OC2)c1cc(C)ccc1C,1.4,4.2%,nt,nt,23.3,nt,4.7%
COc1cccc(CNS(=O)(=O)c2ccc3c(c2)CC(C)N3C(C)=O)c1 (configuration not stated),-0.7,0.8%,-23.9,14.8%,-0.8,8.4,-0.6%
O=C(Nc1ccc2c(c1)CCCN2C(=O)c1cccs1)c1c(F)cccc1F,1.4&0.4,0.6%&-0.2%,-2.6,-8.1%,0.1&-4.9,-2.8,-1.8%&2.1%
Cc1cc(=O)oc2cc(OCc3ccc(C(=O)OCC(=O)Nc4ccccc4OC(F)F)cc3)ccc12,0.7,1.6%,2.5,-57.7%,10.3,6.1,42.0%
CCOc1ccc(NS(=O)(=O)c2ccc3c(c2)N(C(C)=O)CCO3)cc1,1.1,-0.3%,-8.2,-8.2%,1.8,-2.2,1.4%
O=C(CSc1nc(=O)[nH]c2c1CCC2)NCc1ccccc1Cl,-0.8,-0.1%,nt,nt,23.5,nt,-3.9%
O=C(COC(=O)[C@H](Cc1ccccc1)NC(=O)c1ccco1)Nc1ccccc1OC(F)F,2.9,-0.8%,nt,nt,17.6,nt,-1.4%
Cc1ccc(NC(=O)Cn2nnc3sc4c(c3c2=O)CCCC4)c(C)c1,-0.9,-0.6%,nt,nt,18.3,nt,-2.7%
Cc1ccc(CNC(=O)[C@H](C)[C@H]2C[C@]2(C)[C@H](NC(=O)OCc2ccccc2)c2ccccc2)o1,1.5,2.9%,-15.7,50.1µM*,-5.3,8.7&5.7,-4.0%
O=Cc1c(-[n+]2ccccc2)nc([O-])n1-c1ccccc1,-0.2,0.0%,-5.0,19.6%,-6.8,-1.3,-0.8%
COc1ccc(-c2cc(N3CCN(CCO)CC3)n3nccc3n2)cc1,-0.2,2.1%,nt,nt,nt,nt,5.1%
COCCn1nnnc1C(c1ccccc1)N1CCN(C)CC1 (configuration not stated),0.4,-0.2%,6.4,6.6%,-19.6,-0.2,1.1%
C=CCOC(=O)C1=C(C)OC(N)=C(C#N)C1c1ccc2c(c1)OCO2 (configuration not stated),3.0,-1.2%,-36.9,-22.3%,17.4,3.5,-3.9%
Nc1nc(=S)c2snnc2[nH]1,0.2,-0.4%,nt,nt,nt,nt,-2.1%
CC1(C)Cc2c(cnn2-c2ccccc2)-c2c1c1ccccc1n2CC(O)CCl (configuration not stated),0.8,14.3%,-0.7,16.6%,-22.0,-0.9,22.4µM*
COc1ccc2cc(C3c4cc(OC)c(OC)cc4CCN3C(=O)c3ccco3)c(=O)[nH]c2c1 (configuration not stated),1.6,-1.4%,-0.6,-3.7%,12.8,nt,nt
c1ccc2c(N3CCOCC3)nc(N3CCOCC3)nc2c1,-1.5,-1.5%,29.1,-0.1%,4.0,0.8,3.16µM*
CCCn1c(=S)[nH]c2cc(C(=O)N3CCN(c4ccccc4)CC3)ccc2c1=O,-0.2,-0.4%,nt,nt,4.7,nt,-1.1%
# Carrying on:
SMILES,TRPML1 ag,PINK1 expr mod,TRPV1 potentiator,Sfp PPTase inh,TRPML1 blocker,Menin-MLL FL inh,ClpP mod
CCOc1ccccc1NC(=O)C(=O)N/N=C/c1ccc([N+](=O)[O-])cc1,-1.0,3.9%,4.7,10.5%,-3.9,-0.2,1.0%
Oc1ccc(Cl)cc1CNn1cnnc1,0.0,3.8%,4.5,12.6%,-10.7,3.6,nt
O=C1c2ccccc2C(=O)N1CCSc1n[nH]c(=S)s1,0.0,1.7%,4.0,50.1µM*,-3.1,1.2,103.0%
CC1(C(=O)NCc2cccc(C(F)(F)F)c2)CCN1C1Cc2ccccc2C1 (configuration not stated),-0.6,3.9%,nt,nt,nt,nt,-0.4%
CCN(CC)S(=O)(=O)c1ccc(C(=O)Nc2ncn(Cc3ccccc3)n2)cc1,0.6,-3.0%[38.3 µM],-11.4,14.7%,0.3,1.0,-2.4%
CCc1ccc(C(c2ccc(CC)cc2)C(Cl)Cl)cc1,12.6,23.4%,2.8,nt,-10.0,nt,-2.4%
O=c1c2c3c(sc2n2cnnc2n1Cc1ccccc1)CN(Cc1ccccc1)CC3,0.7,4.6%,13.0,4.7%,54.5,9.7,-9.4%
S=C(Nc1ccccc1)c1ccccn1,2.8,1.7%,4.8&-8.1,44.7µM*!,30.2,-0.3&-0.1,1.5%
CC1CN(C(=O)c2ccc3c(c2)OCO3)OC(c2ccccc2)O1 (configuration not stated),0.8,1.6%,3.7,-4.5%,29.8,-0.8,-4.5%
CCn1cc(C(=O)NCCCN(C)c2ccccc2)c(=O)c2cc(S(=O)(=O)N(C)C)ccc21,2.4,0.9%,4.0,-2.2%,26.1,4.3,-1.6%
CC(=O)Nc1ccc(S(=O)(=O)Nc2nc3ccccc3nc2Nc2cccc(O)c2)cc1,-0.3,0.9%,15.6,26.3%,22.5,3.2,nt
Cc1nc(-c2c(-c3ccc(O)cc3O)noc2C(F)(F)F)cs1,-0.6,-3.2%,4.9,16.1%,0.1,-1.3,-1.1%
CCCCNC(=S)Nc1cccc2cnccc12,-1.0,3.9%,6.7,-17.3%,-12.0,-4.0,-1.1%

# Assay outcomes: PubChem, National Center for Advancing Translational Sciences (NCATS)
